# High-throughput results (PubChem)
# VDR inh: Inhibitors of the vitamin D receptor (VDR): qHTS; VDR-SRC2-3 peptide fluorescence polarization, 2 h; Vitamin D3 receptor (Homo sapiens), P11473; Potency, µM, without a hit: max response, negative = inhibition, usual class: inhibitors; actives 0.93% (n = 400,000); active = well fitted inhibition curve with a large enough effect; inconclusive = small, poorly fitted or top-dose-only effect, or another doubt; inactive = no such curve, though single readings can be large or run the other way; also: series mostly up to about 120 µM
# Target sequence (P11473 whole entry, looked up): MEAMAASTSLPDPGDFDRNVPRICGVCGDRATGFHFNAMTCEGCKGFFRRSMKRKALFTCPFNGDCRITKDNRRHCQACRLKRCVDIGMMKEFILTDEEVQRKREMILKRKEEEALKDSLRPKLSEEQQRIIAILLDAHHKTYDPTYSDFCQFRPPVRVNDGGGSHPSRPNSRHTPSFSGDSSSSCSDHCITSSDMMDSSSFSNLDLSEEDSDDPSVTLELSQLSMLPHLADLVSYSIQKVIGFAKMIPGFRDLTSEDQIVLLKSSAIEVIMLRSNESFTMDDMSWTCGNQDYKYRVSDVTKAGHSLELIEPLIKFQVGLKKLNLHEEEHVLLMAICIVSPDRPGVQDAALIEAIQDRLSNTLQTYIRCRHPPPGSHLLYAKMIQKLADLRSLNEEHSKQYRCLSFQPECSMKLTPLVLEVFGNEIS
#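 Signal is fluorescence polarization, reporting how far test compounds block the interaction of VDR with the SRC2-3 coregulator peptide after a 2 h room-temperature incubation.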
# Starred values were filed as active, the others as inactive; ? = inconclusive; & = joins results of further samples; [ ] = remark or other dose. % is scaled to controls: 0 for no effect and ±100 for the full control effect; potency is read from the fitted curve at half-maximal effect. These rows are one share of the data. The share of hits here may be higher or lower than overall.
Compound | VDR inh
CCn1cc(CNC(=O)C2CCC(=O)N(C3CCCCCC3)C2)cn1 (stereo not given) | 8%
CCOc1sc2nc(C)n(CC(=O)Nc3cccc(C)c3)c(=O)c2c1C | -11%
Cc1cc2ncn(-c3nnnn3-c3ccccc3)c2cc1C | 3%
CCCCN(C)C(=O)CN1C(=O)c2cccnc2Oc2ccc(Cl)cc21 | 11%
Cn1ncc(Br)c1C(=O)Nc1c(F)c(F)cc(F)c1F | 6%
COc1ccc(-c2sc3ccc(N4CCOCC4)cc3c2-c2ccc(OC)c(F)c2)cc1 | 15%
CC(C)(N)C(=O)N[C@@H](Cc1cnc[nH]1)C(=O)N[C@H](Cc1ccc2ccccc2c1)C(=O)N[C@H](Cc1ccccc1)C(=O)N[C@@H](CCCCN)C(N)=O | -7%
CCOC(=O)C1CCN(C(=O)COC(=O)c2ccccc2OCC)CC1 | 2%
COCc1nnc(NC(=O)c2ccc(OC)cc2OC)s1 | -9%
O=C(O)c1cc(O)c2c(c1)[C@@H]([C@H]1c3cc(C(=O)O)cc(O)c3C(=O)c3c(O[C@@H]4O[C@H](CO)[C@@H](O)[C@H](O)[C@H]4O)cccc31)c1cccc(OC3O[C@H](CO)[C@@H](O)[C@H](O)[C@H]3O)c1C2=O (stereo not given in full) | -29%

# Other structures.
Compound | VDR inh
COc1ccc(CC(=O)Nc2nccs2)cc1S(=O)(=O)N1CCOCC1 | -1%
CCOc1cc(OCC)c(C(C)=O)cc1OCC | 1%
Clc1ccc2nnc(Cl)n2n1 | -18%
COC(=O)c1ccc(C(=O)OC)c(NC(=O)C2CC(=O)N(C3CCCC3)C2)c1 (stereo not given) | 10%
Cc1ccc(NC(=O)C2CCN(S(=O)(=O)c3cnc[nH]3)CC2)cc1C | -16%
Cn1c(CCC(=O)OCC(=O)Nc2ccc(Oc3ccccc3)cc2)nc(=O)c2ccccc21 | -14%
COc1cc(/C=C2/C(=O)N(c3ccc(C)c(C)c3)N=C2C)cc([N+](=O)[O-])c1O | -10%
COCCn1c(=O)c(-c2cn(C)c3ccccc23)nc2cnc(Oc3ccccc3)nc21 | -9%
CSC(=NC#N)N1CCN(C(c2ccccc2)c2ccccc2)CC1 | -9%
CCOC(=O)CCc1c(C)nc(SCc2ccc(C(=O)O)cc2)c(C#N)c1C | -16%

# The results go on.
Compound | VDR inh
CCCc1cc(=O)oc2c3c(cc(OCC(=O)N4CCC[C@H]4C(=O)O)c12)OC(C)(C)CC3 | -12%
COc1ccc(NC(=O)CNC(=O)Cn2ccc3ccccc3c2=O)cc1OC | -2%
COc1cccc(/C=N/NC(=O)c2ccncc2)c1OC(=O)c1ccc(Br)cc1 | -7%
Cc1nn(C(=O)c2ccc([N+](=O)[O-])cc2)c(C)c1Br | -9%
COc1ccccc1NC(=O)COC(=O)CCS(=O)(=O)c1ccc(C)cc1 | 0%
CNC(=O)c1cc2cc(OC)ccc2oc1=O | 0%
CCCC/C(O)=C1\C(=O)CC(C)(C)CC1=Nc1ccc(OC)cc1 | -10%
CCC1CN(S(=O)(=O)c2cc(-c3cc(C)no3)ccc2OC)c2cc(C)ccc2O1 (stereo not given) | -5%&1%
CC(=O)Nc1ccc(OC(=O)CC2SC(=O)NC2=O)cc1 (stereo not given) | 3%
Cc1ccc(NC(=O)COc2ccc(/C(N)=N/O)cc2)cc1C | -8%

# Some of these compounds in order of number of heavy atoms, largest number first:
Compound | VDR inh
Cn1c(CCC(=O)OCC(=O)Nc2ccc(Oc3ccccc3)cc2)nc(=O)c2ccccc21 | -14%
CCCC/C(O)=C1\C(=O)CC(C)(C)CC1=Nc1ccc(OC)cc1 | -10%
Cc1cc2ncn(-c3nnnn3-c3ccccc3)c2cc1C | 3%
CC(=O)Nc1ccc(OC(=O)CC2SC(=O)NC2=O)cc1 (stereo not given) | 3%
Clc1ccc2nnc(Cl)n2n1 | -18%

# Other entries:
Compound | VDR inh
O=S(=O)(c1ccc(Cl)nc1)N1CCN(c2ncccn2)CC1 | 38%[activator]
COC(=O)c1cccc(NS(=O)(=O)c2ccc(OC)cc2)c1C | -4%
COc1ccc(Cl)cc1NC(=O)C1COc2ccccc2O1 (stereo not given) | -5%
COc1cccc(/C=N/NC(=O)Cn2ccnc2C)c1 | -15%
O=C(Nc1nccs1)NC(C(F)(F)F)C(F)(F)F | 7%
COc1ccc2c(c1OC)C(=O)OC2Nc1nc(-c2cc3ccccc3oc2=O)cs1 (stereo not given) | -24%
CN(/N=C/c1ccc(-c2ccc([N+](=O)[O-])cc2)o1)c1ccccc1 | -2%
CCOC(=O)C(CC)Sc1nnc(COc2ccc(C)cc2)n1-c1ccccc1 (stereo not given) | -10%
CCOc1ccc(CNC(=O)CCCC(=O)n2ncc3cc(C)ccc32)cc1 | 4%
O=C(NNS(=O)(=O)c1ccc(F)cc1F)C1Cc2c(ccc3ccccc23)O1 (stereo not given) | -3%

# Going on with the list:
Compound | VDR inh
O=C(O)c1ccccc1C(=O)Nc1nccs1 | -3%
O=[N+]([O-])c1ccc(C[n+]2cccc3c4ccccc4ccc32)cc1 | -4%
COC(=O)c1ccc(NC(=O)C2C3C=CC(C3)C2C(=O)O)cc1 (stereo not given) | -13%
COc1ccccc1N1CCN(CCCCN2C(=O)CCC2=O)CC1 | 10%&6%
Cc1cc(NC(=O)CCC(=O)N(CC2CCCO2)C(C(=O)NC2CCCC2)c2ccccc2C)no1 (stereo not given) | 7%
CCn1c(NCCO)nc2c(c1=O)C(C)(CC)Cc1ccccc1-2 (stereo not given) | 21%
CN(C)CCCNC(=O)C[C@H]1C[C@H](C(=O)N2CCCCC2)[C@@]2(C)c3[nH]c4cc(-c5ccco5)ccc4c3CCN2C1=O | 14%
CCc1ccc2c(c1)C(=O)c1ccccc1C2=O | -1%
O=C(COc1ccc(Oc2ccccc2)cc1)NC1CCS(=O)(=O)C1 (stereo not given) | -9%
CCn1c2ccccc2c2cc(NC(=O)COc3ccccc3OC)ccc21 | -9%

# Next section.
Compound | VDR inh
Cc1c(CCC(=O)NCCC(=O)O)c(=O)oc2c(C)c3oc4c(c3cc12)CCCC4 | -10%
COC(=O)c1ccccc1NC(=O)CSc1nc(NC(=O)c2ccccc2)c2c(C)c(C)oc2n1 | 3%
COc1ccc(OC)c(CNC(=O)c2ccc(C)c(NC(=O)c3nsc4ccccc34)c2)c1 | 3%
Cc1cccc(-n2ncc(C(=O)N3CCN(Cc4ccccc4)CC3)c2C2CCN(C(=O)OC(C)(C)C)CC2)c1 | 13%
O=C(Nc1ccc(F)cc1)c1cccc(N2C(=O)C3C4CCC(C4)C3C2=O)c1 (stereo not given) | -4%
CCCn1nnc(NC(=S)NC(=O)c2ccc(-c3ccc(Br)cc3)o2)n1 | -13%
CCc1ccccc1OCCOc1ccc(C)cc1OC | -19%
CC(=O)N1c2ccc(S(=O)(=O)NCC3CCC(C(=O)N4CCCC(C)C4)CC3)cc2CC1C (stereo not given) | ?
Cc1ccnc(NC(=S)NC(=O)c2ccco2)c1 | -13%
CCC(C)N1CC23C=CC(O2)C(C(=O)OC)C3C1=O (stereo not given) | -1%

# The list continues.
Compound | VDR inh
COCCNC(=O)C(=O)NCC1OCCN1S(=O)(=O)c1cccs1 (stereo not given) | 18%
CSc1ccccc1NC(=O)Cc1ccc(Br)cc1 | -16%
CCOc1ccccc1CNC(=O)CCNC(=O)Cn1ccc2ccccc2c1=O | -9%
CCOc1ccc(NC(=O)CSc2nc3c(c(=O)[nH]2)CCCC3)cc1 | 12%
CCOc1ccc(CCNC(=O)c2nnn(CC(=O)Nc3c(C)cc(C)cc3C)c2N)cc1OCC | 4%
CCCCNC(=O)c1onc(CSc2ccccc2)c1C(=O)NCCCC | 8%
COc1ccc(NC(=O)CSc2nnc(COc3ccccc3)n2Cc2ccco2)cc1OC | 5%
Cc1cccc(C(=O)O)c1NC(=O)Cc1cccc2ccccc12 | -7%
CCCCn1c(NCCC)nc2c1c(=O)[nH]c(=O)n2C | 7%
CCOC(=O)CSc1nc2sc3c(c2c(=O)n1Cc1ccccc1)CC(C)CC3 (stereo not given) | -15%

# Going on with the list:
Compound | VDR inh
Cc1nc(C2COc3ccccc3O2)sc1C(=O)O (stereo not given) | -14%
CC(C)COc1ccc(C(=O)CCN2CCCCC2)cc1 | ?
CC(C)CNC1CS(=O)(=O)CC1O (stereo not given) | 90%[activator]
O=C(NCC1CCCO1)c1ccc(NS(=O)(=O)c2cccs2)cc1 (stereo not given) | -16%
COc1cc(NC(=O)c2ccc3c(Cl)c4c(nc3c2)CCC4)cc(OC)c1OC | -2%
Cc1ccc(-c2ccc(CCC(=O)O)n2-c2cccc(O)c2)cc1 | -14%&17%
Cc1cc(C)c(NC(=O)CNC(=O)[C@@H]2CCCN2C(=O)c2cccs2)c(C)c1 | 5%
CCCCNC(=S)N/N=C/c1ccccc1F | 6%
COc1cccc(C2CC(c3cccs3)=NN2C(=O)CSc2nc3ccccc3s2)c1OC (stereo not given) | 1%
Oc1ccc(/C=C/c2ccc(/C=C/c3ccc(O)cc3)c(Br)c2)cc1 | -6%

# The results go on:
Compound | VDR inh
O=C(CSc1nnc(-c2ccc(OC(F)F)cc2)o1)NC(=O)NCc1ccco1 | -25%
COc1ccccc1C(=O)CN1C(=O)NC2(CCc3ccccc32)C1=O (stereo not given) | -8%
CCN(C(=O)Cn1nnc2sc(-c3ccccc3)cc2c1=O)c1cccc(C)c1 | -16%
O=C(Nc1cccc([N+](=O)[O-])c1)Nc1ccc2c(c1)OCCO2 | 2%
O=C(COc1ccccc1)NCCc1csc(-c2cccc(F)c2)n1 | 7%
CCCCC(=O)Oc1cc(C)[nH]c(=O)c1[N+](=O)[O-] | 24%
O=C1CC(c2ccccc2)n2ncnc2N1 (stereo not given) | 4%
O=C(NCc1cccnc1)C1CC(c2cccc(Br)c2)=NO1 (stereo not given) | -3%
COC(C)(C)[C@]12CC(O)(C(C)C)ON1[C@H]1CCCCC1N2O (stereo not given in full) | -4%
Cc1ccc(CN2C(=O)c3ccccc3C2C(=O)NCC2CCCO2)cc1 (stereo not given) | -13%

# Next part
Compound | VDR inh
CC1CCN(C(=O)Cn2ncc3c([nH]c4ccccc43)c2=O)CC1 | 11%
Cc1c(NC2=C(Cl)C(=O)N(c3ccccc3)C2=O)c(=O)n(-c2ccccc2)n1C | ?
O=C(NC(=S)NCc1ccccc1)c1ccc2c(c1)OCO2 | -21%
Cc1cc(N/N=C/c2ccc(F)cc2)nc(-n2nc(C)cc2C)n1 | 10%
O=C(CN(C1CCCCC1)S(=O)(=O)c1ccc(Cl)cc1)NCCCO | -3%
COc1ccc(NC(=O)CN2C(=O)NC3(CCCC3)C2=O)cc1 | 6%
CCn1cc(S(=O)(=O)CC(=O)Nc2ccc3c(c2)OCCO3)c2ccccc21 | -9%
CC(=O)OCC1(C)CN(c2ccccc2)NC1=O (stereo not given) | -2%
O=C(NCc1ccccc1)c1nc(S(=O)(=O)Cc2ccc(F)cc2)ncc1Cl | 32µM*
COc1ccccc1CNC(=O)CSc1nc2ccccc2c(=O)n1CCCN1CCOCC1 | ?

# 4 records drawn at random from the list so far, as already listed:
Compound | VDR inh
Cc1c(NC2=C(Cl)C(=O)N(c3ccccc3)C2=O)c(=O)n(-c2ccccc2)n1C | ?
O=C(NC(=S)NCc1ccccc1)c1ccc2c(c1)OCO2 | -21%
COc1ccccc1CNC(=O)CSc1nc2ccccc2c(=O)n1CCCN1CCOCC1 | ?
O=C(CN(C1CCCCC1)S(=O)(=O)c1ccc(Cl)cc1)NCCCO | -3%

# (listing goes on)
Compound | VDR inh
CCOC(=O)CNC(=O)C(CC(C)C)NC(=O)C1CCCCC1 (stereo not given) | -1%
COc1cccc(OC)c1C(=O)Nc1ccc(S(=O)(=O)Nc2nccc(C)n2)cc1 | -18%
O=C(CN1C(=O)C(=O)N(C2CCCC2)C1=O)NCCc1ccc(Cl)cc1Cl | -17%
COc1cccc(C(=O)Nc2ccccc2OCc2cc(=O)n3cc(C)ccc3n2)c1 | 7%
O=C(NCCC(=O)N1CCN(S(=O)(=O)c2ccccc2F)CC1)Nc1ccccc1 | 13%
CCc1ccc(S(=O)(=O)NCc2csc(-c3cccnc3)n2)s1 | 13%
Cc1cc(C)n(-c2nc(NCCN(C)C)c3c4c(sc3n2)CCCC4)n1 | 7%
CC(C)[C@H](Nc1nc(-c2ccccc2)nc2c1oc1ccccc12)C(=O)O | 11%
O=C(Cc1cccc2ccccc12)OCn1nnc2ccccc2c1=O | -11%
Cc1cc2nc(-c3ccc(SCC(=O)N4CCc5ccccc54)nc3)[nH]c2cc1C | 1%

# (continued)
Compound | VDR inh
CCOc1ccc(-n2c(=O)c3c4c(sc3n(CC(=O)NCc3ccco3)c2=O)CCC4)cc1 | 8%
COc1ccc(-c2cc(=O)c3cc(OC)ccc3[nH]2)cc1 | ?
CCCn1nc(NC(=O)c2cccs2)c2cc3cccc(C)c3nc21 | -19%
COC(=O)c1c(NC(=O)CCN2CCOCC2)sc2c1CCCC2 | -6%
CCOc1ccc2nc(NC(=O)c3nc(SC(C)C)ncc3Cl)sc2c1 | 3%
O=C(c1sccc1Cl)N1CCN(Cc2ccc3c(c2)OCO3)CC1 | -1%
CC1CC(C)CN(CCCNC(=O)CN2C(=O)CSc3ccc(S(=O)(=O)N4CCCCC4)cc32)C1 (stereo not given) | 2%
CN(CC(=O)Nc1cccc(F)c1)C(=O)Cn1cnc2c1c(=O)n(C)c(=O)n2C | 6%
CCOC(=O)c1sc(NC(=O)Nc2ccc(Cl)cc2)cc1C | 2%
COc1cc(F)ccc1CN1CCC(C(=O)Nc2ccc(Oc3ccccc3)nc2)CC1 | -12%

# Next section
Compound | VDR inh
COc1cccc(CN2CC(C(=O)NCCCc3ccc(C)cc3)CCC2=O)c1 (stereo not given) | -2%
CCOc1ccc2c(C)c(C(=O)O)oc2c1OCC | -7%
CON=C1C=C(C)C(=O)C(C)=C1C | -6%
Cc1ccc(-c2nnc(Nc3ccc4c(c3)OCO4)c3ccccc23)cc1S(=O)(=O)NCCO | -18%
